Bioassay records: PubChem, Broad Institute
DUX4 txn inh: blocks DUX4-driven transcriptional activation | 293T-iDUX4 ZSCAN4-Gaussia luciferase reporter, 24 h; stronger effect = lower value | activity change, negative = inhibition, % (no concentration beside the values) | actives 0.8% (n = 37,000) | AID 1224904;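 active means -10% or lower and over 25 points stronger than a control reporter; inconclusive means -10% or lower with a smaller gap; inactive means above -10%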;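 further: 0% = median of neutral control wells and -100% = median of positive control wells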
DUX4 txn inh difference: also measured in DUX4 txn inh; calls as there; Gaussia minus Italica difference, %; measured here: selective DUX4 reporter inhibition;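 worked out from the two reporters; negative = selective loss of the DUX4 reporter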
DUX4 txn inh control: recorded beside DUX4 txn inh, whose call it bears; activity change, negative = inhibition, %; measured here: Italica tet-on control reporter;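 0 = neutral control and -100 = positive control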
Active calls of the source: *; ? = inconclusive; / = no result given; & = joins results of further samples. A portion of the library, so the mix of outcomes need not match the whole.

Sample of the layout:
| cpd | DUX4 txn inh | DUX4 txn inh difference | DUX4 txn inh control | Structure |
| --- | --- | --- | --- | --- |
| 1 | -16* | -34* | 18* | C[C@H](CO)N1C[C@H](C)[C@H](CN(C)Cc2ccc(C(=O)Nc3ccccc3N)cc2)OCc2cnnn2CCCC1=O |
| 2 | 1 | 3 | -1.6 | COc1cccc(CNC(=O)C[C@H]2C=C[C@@H](NC(=O)C3CCOCC3)[C@H](CO)O2)c1 |

This part in full (from the top)
| cpd | DUX4 txn inh | DUX4 txn inh difference | DUX4 txn inh control | Structure |
| --- | --- | --- | --- | --- |
| 1 | -16* | -34* | 18* | C[C@H](CO)N1C[C@H](C)[C@H](CN(C)Cc2ccc(C(=O)Nc3ccccc3N)cc2)OCc2cnnn2CCCC1=O |
| 2 | 1 | 3 | -1.6 | COc1cccc(CNC(=O)C[C@H]2C=C[C@@H](NC(=O)C3CCOCC3)[C@H](CO)O2)c1 |
| 3 | 5 | -1 | 6.0 | N#C[C@H]1[C@@H](c2ccc(C#CC3CCCCC3)cc2)[C@@H](CO)N1C(=O)Nc1ccc(F)cc1 |
| 4 | 8 | 5 | 2.8 | CCC(=O)N1C[C@H](O)COC[C@@H]2O[C@@H](CC(=O)NC)CC[C@H]21 |
| 5 | 2 | 1 | 1.1 | C[C@@H]1CN([C@H](C)CO)C(=O)Cc2cc(NC(=O)CCC(F)(F)F)ccc2O[C@@H]1CN(C)S(=O)(=O)c1ccc(Cl)cc1 |
| 6 | -3 | -1 | -2.0 | CC(=O)N1[C@H](CO)[C@@H]2c3ccccc3N(S(=O)(=O)c3ccccc3)C[C@@H]21 |
| 7 | 5 | -5 | 10 | CCNC(=O)[C@H]1[C@H](CO)[C@H]2Cn3c(ccc(-c4cncnc4)c3=O)[C@H]2N1C(=O)NC1CCCC1 |
| 8 | ? | / | / | CN1c2ccc(-c3cccc(C#N)c3)cc2[C@H]2[C@H](CCN2C(=O)Cc2ccccn2)[C@H]1CO |
| 9 | ? | / | / | COc1ccc2c3c([nH]c2c1)[C@@H](CO)N(CC1CC1)CC31CN(C(=O)c2ccccc2F)C1 |
| 10 | 4 | 0 | 3.1 | CCCNC(=O)C[C@@H]1CC[C@H]2[C@@H](COC[C@H](O)CN2Cc2ccccc2F)O1 |
| 11 | 3 | -7 | 11 | COc1ccc(NC(=O)N2C[C@@H](O)COC[C@H]3O[C@H](CC(=O)N4CCCCC4)CC[C@@H]32)cc1 |
| 12 | 4 | -4 | 7.9 | C[C@@H]1CN([C@H](C)CO)C(=O)Cc2cc(NC(=O)Cn3cnnn3)ccc2O[C@@H]1CN(C)Cc1ccc(Oc2ccccc2)cc1 |
| 13 | 3 | 7 | -4.4 | O=C(CCN1CCCCC1)N[C@@H]1CC[C@@H](CCNC(=O)c2cc(Cl)cc(Cl)c2)O[C@@H]1CO |
| 14 | 9&11 | 14&6 | -5.0&4.5 | COc1ccc(NC(=O)N2[C@@H]3CNC[C@H]2C3c2ccc(-c3ccc(C)cc3)cc2)cc1 (stereo partly specified) |
| 15 | 2 | 4 | -2.2 | CO[C@@H]1CN(C)C(=O)c2cc(NC(=O)c3cnccn3)ccc2OC[C@H](C)N(C)C[C@H]1C |
| 16 | 5 | 14 | -9.1 | COc1ccc2c3c([nH]c2c1)[C@@H](CO)N(C(=O)C1CCCCC1)CC31CN(S(C)(=O)=O)C1 |
| 17 | 0 | 2 | -1.9 | C[C@H](CO)N1C[C@H](C)[C@@H](CN(C)CC2CCCCC2)Oc2ccc(NS(=O)(=O)c3cn(C)cn3)cc2C1=O |
| 18 | 17 | 4 | 13 | CCNC(=O)C[C@@H]1CC[C@H]2[C@@H](COC[C@@H](O)CN2S(=O)(=O)c2ccccc2F)O1 |
| 19 | -3 | -7 | 4.0 | Cc1noc(C)c1S(=O)(=O)N(C)C[C@@H]1OCCCC[C@@H](C)Oc2ccc(NS(=O)(=O)c3cccs3)cc2C(=O)N([C@H](C)CO)C[C@@H]1C |
| 20 | -6 | -6 | -0.6 | CC(C)C#Cc1ccc2c(c1)O[C@@H](CN(C)C(=O)Nc1ccccc1)[C@H](C)CN([C@@H](C)CO)S2(=O)=O |
| 21 | 2 | 2 | 0.0 | CN1[C@@H]2c3ccc(/C=C/c4ccccc4)c(=O)n3C[C@H]1[C@H](CO)[C@H]2C(=O)NC1CCCCC1 |
| 22 | -5 | -8 | 3.6 | COc1ccc(S(=O)(=O)Nc2cccc3c2O[C@H](CN(C)C(=O)Nc2cccc4ccccc24)[C@@H](C)CN([C@H](C)CO)C3=O)cc1 |
| 23 | 11 | 8 | 2.6 | O=C(C[C@H]1CC[C@@H]2[C@H](COC[C@H](O)CN2C(=O)c2ccccc2F)O1)N1CCCCC1 |
| 24 | 9 | 11 | -2.5 | Cn1cnc(S(=O)(=O)N2CC[C@@H]3[C@H](CO)Nc4ccc(C5=CCCCC5)cc4[C@@H]32)c1 |
| 25 | 3 | -11 | 14 | C[C@H](CO)N1C[C@H](C)[C@@H](CN(C)C(=O)[C@H](Cc2ccccc2)N(C)C)OCc2ccccc2-c2ccccc2C1=O |
| 26 | -2 | 0 | -2.4 | C[C@@H]1CCCCO[C@H](CN(C)Cc2ccc(C(=O)O)cc2)[C@@H](C)CN([C@H](C)CO)C(=O)c2cc(NS(=O)(=O)c3ccc(F)cc3)ccc2O1 |
| 27 | 21 | 4 | 17 | O=C(C1CCC1)N1CCCCN2[C@H](CO)[C@H](c3ccc(-c4ccncc4)cc3)[C@@H]2C1 |
| 28 | ? | / | / | CC(C)CC#Cc1ccc([C@H]2[C@H]3CN(C(=O)c4ccc5c(c4)OCO5)CC(=O)N3[C@H]2CO)cc1 |

A different layout for part of the listing above:
nr	SMILES	DUX4 txn inh	DUX4 txn inh difference	DUX4 txn inh control
23	O=C(C[C@H]1CC[C@@H]2[C@H](COC[C@H](O)CN2C(=O)c2ccccc2F)O1)N1CCCCC1	11	8	2.6
24	Cn1cnc(S(=O)(=O)N2CC[C@@H]3[C@H](CO)Nc4ccc(C5=CCCCC5)cc4[C@@H]32)c1	9	11	-2.5
25	C[C@H](CO)N1C[C@H](C)[C@@H](CN(C)C(=O)[C@H](Cc2ccccc2)N(C)C)OCc2ccccc2-c2ccccc2C1=O	3	-11	14
26	C[C@@H]1CCCCO[C@H](CN(C)Cc2ccc(C(=O)O)cc2)[C@@H](C)CN([C@H](C)CO)C(=O)c2cc(NS(=O)(=O)c3ccc(F)cc3)ccc2O1	-2	0	-2.4
27	O=C(C1CCC1)N1CCCCN2[C@H](CO)[C@H](c3ccc(-c4ccncc4)cc3)[C@@H]2C1	21	4	17
